PV pol inh = inhibitors of poliovirus RNA polymerase binding and polymerization | P03300 | poliovirus polymerase elongation, fluorescence polarization; active compounds read low | % elongation, % (compound at 16.7 µg/mL) | 0.66% of 150,000 active; in the data active = % elongation below about 90%; note: some results filed as inactive read as strong as hits
Mtb MenB inh = Mtb MenB enzyme inhibition; MenB enzyme assay, absorbance read-out; some hits fall short of the stated cut; 0.43% of 100,000 active; AID 540299; P9WNP5; inhibition, %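 (about 12 µg/mL by stock and volumes)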;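 active = mean of two replicates above 30%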;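 note: 0% = no compound and 100% = wells with inactive enzyme; the first replicate is given; strong numbers were not always called active; inactives centre near -10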
Target sequence (P9WNP5 whole entry, looked up): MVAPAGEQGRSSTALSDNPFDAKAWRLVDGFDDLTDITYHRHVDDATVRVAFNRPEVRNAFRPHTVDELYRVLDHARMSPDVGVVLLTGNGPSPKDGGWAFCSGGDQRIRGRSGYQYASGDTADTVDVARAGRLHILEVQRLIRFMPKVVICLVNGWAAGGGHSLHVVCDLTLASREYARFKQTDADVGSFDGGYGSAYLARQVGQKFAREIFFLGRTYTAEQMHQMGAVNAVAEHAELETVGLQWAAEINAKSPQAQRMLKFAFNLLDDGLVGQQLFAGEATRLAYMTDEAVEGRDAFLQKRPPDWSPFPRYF
Mtb MbtI inh = blocks the Mycobacterium tuberculosis siderophore enzyme MbtI; inhibition, %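 (about 17 µg/mL by stock and volumes)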; 0.89% of 100,000 active; P9WFX0; purified MbtI enzyme, fluorescence intensity read-out; AID 493033;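 active = above 50% in both replicates, above 80% if mildly self-fluorescent; inactive = the rest, strongly fluorescent compounds included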;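 note: 0% = mean of negative and 100% = mean of positive controls; one replicate is shown; some compounds called inactive have numbers as strong as hits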
Target sequence (P9WFX0 whole entry, looked up): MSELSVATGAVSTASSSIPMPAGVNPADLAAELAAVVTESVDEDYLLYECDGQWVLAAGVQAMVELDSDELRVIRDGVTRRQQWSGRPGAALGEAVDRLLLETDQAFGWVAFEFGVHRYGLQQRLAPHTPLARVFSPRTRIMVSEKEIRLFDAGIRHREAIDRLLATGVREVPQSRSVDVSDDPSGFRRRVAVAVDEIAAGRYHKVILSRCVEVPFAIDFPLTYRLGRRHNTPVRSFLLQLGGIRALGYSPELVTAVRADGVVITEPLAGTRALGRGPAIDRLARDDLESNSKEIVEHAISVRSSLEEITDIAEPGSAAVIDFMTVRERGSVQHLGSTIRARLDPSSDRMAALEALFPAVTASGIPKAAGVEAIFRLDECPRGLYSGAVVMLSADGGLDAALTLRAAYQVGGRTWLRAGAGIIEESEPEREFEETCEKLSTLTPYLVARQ
PV pol inh intensity = further read-out of PV pol inh, marked with its call; % elongation; measured here: total intensity read-out; formula for this scale not given here;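 total fluorescence in place of polarization; lower means less elongation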
The depositor's hits bear a star; i = inactive; nt = not tested or not shown; & = joins results of further samples.

compound	PV pol inh	PV pol inh intensity	Mtb MenB inh	Mtb MbtI inh
COC(=O)c1ccc(S(=O)(=O)NCCNc2ncc(Cl)cc2C(F)(F)F)n1C	103	104	-14	-14
CCOc1ccc(C(=O)NCC(=O)NC2CCN(Cc3ccccc3)CC2)cc1	97	99	-7	0
Cc1cc(C(=O)CSc2ccc(S(=O)(=O)N(C)C)cn2)c(C)n1CCc1cccs1	99	102	-24	28
CC1CC(C)CN(c2ncnc3c2cnn3C)C1 (configuration not stated)	99	104	-10	9
CN(Cc1cccs1)C(=S)SCCO	95	86	-13	nt
O=C(C(F)F)N(Cc1ccccc1)Cc1ccccc1	102	105	-3	-17
COc1cc(CNCc2ccco2)cc(Cl)c1OC	100	102	-16	-10
CCOCCCn1c(CC(N)=O)n[nH]c1=S	106	103	-15	-9
Cc1ccc(CC(=O)NC(C)C2CCCO2)cc1 (configuration not stated)	101	106	2	-21
C[N+](C)(C)C/C=C1/COCO1	106	103	-6	-11
Cc1cc(=O)[nH]c(SCc2nc3ccccc3[nH]2)n1	104	106	-6	-2
Cc1cc(NC(=O)CSc2nc3c(c(=O)n2-c2ccc(F)cc2)SC(C)C3)no1 (configuration not stated)	102	97	-8	-2
c1ccc(C2NCCn3cccc32)cc1 (configuration not stated)	102	96	-22	23
O=C1NNC(c2ccccc2)=N/C1=C\c1ccc(Cl)cc1	101	100	12	20
N#Cc1c2n(c(=O)n(-c3ccc(Cl)cc3)c1=N)CCC2	105	103	10	20
Cc1ccc(Cn2ccsc2=NC(=O)COC(=O)c2ccc3c(=O)n4c(nc3c2)CCC4)cc1	97	97	-15	-18
C=CCC1CCCCC1NC1CCCCC1 (configuration not stated)	108	111	-3	nt
O=C(c1ccc(Cn2c(=O)[nH]c3ccccc3c2=O)cc1)N1CCN(c2ccccc2)CC1	104	98	14	12
CC(C)OC(=O)Cn1c(C2CC2)nc2ccccc2c1=O	101	101	31*	4
O=C1C=CC(=O)N1CC1CCCO1 (configuration not stated)	100	104	nt	62*
COC(=O)c1sc2cc(-c3ccc(F)cc3)sc2c1C	107	106	-11	-14
CCc1ccc(N2Cc3ccccc3C2=N)cc1	103	102	nt	-4
O=C(CN1CCc2ccccc21)Nc1scc2c1c(=O)oc1ccccc12	108	112	-2	-2
O=c1nc(-c2ccc(Cl)cc2)oc2ccccc12	105	104	nt	-10
C=CCn1c(=N)n(CC(=O)c2ccc(OC)cc2)c2ccccc21	101	104	-16	-11
COc1ccccc1NC(=O)NC(N)=O	100	101	3	2
Cc1ccc(NC(=O)c2[nH]c3c(c2C)C(=O)CC(c2ccc(C(C)(C)C)cc2)C3)cc1C (configuration not stated)	101	104	-16	-1
C=CCn1c(=O)c2ccccc2n2c(SCC(=O)Nc3sc(C)c(CC)c3C(=O)OCC)nnc12	111	117	-4	168
CC1CCc2nc(NC(=O)Nc3cccnc3)sc2C1 (configuration not stated)	99	92	-41	-2
CSc1nc2cc(F)c(F)cc2n1C	101	103	-8	-1

6 successive compounds already listed, for reference:
compound	PV pol inh	PV pol inh intensity	Mtb MenB inh	Mtb MbtI inh
CC1CC(C)CN(c2ncnc3c2cnn3C)C1 (configuration not stated)	99	104	-10	9
CN(Cc1cccs1)C(=S)SCCO	95	86	-13	nt
O=C(C(F)F)N(Cc1ccccc1)Cc1ccccc1	102	105	-3	-17
COc1cc(CNCc2ccco2)cc(Cl)c1OC	100	102	-16	-10
CCOCCCn1c(CC(N)=O)n[nH]c1=S	106	103	-15	-9
Cc1ccc(CC(=O)NC(C)C2CCCO2)cc1 (configuration not stated)	101	106	2	-21

(list continues)
compound	PV pol inh	PV pol inh intensity	Mtb MenB inh	Mtb MbtI inh
N#Cc1c(N)oc(-c2ccc3c(c2)OCO3)c1-c1ccc2c(c1)OCO2	75	194	-89	50
O=C(NC1CCCCCC1)c1ccc(Cl)c(S(=O)(=O)N2CCOCC2)c1	105	102	-27	-7
Cc1noc(C)c1-c1nc(-c2c(Cl)cccc2Cl)no1	101	112	12	-12
CCOc1ccccc1C(=O)OCCN1CCCC1=O	99	100	nt	4
C/C(=N\NC(=O)c1ccoc1C)c1ccc(Cl)s1	101	102	-25	19
Cn1c(Cc2nn(C)c(=O)c3ccccc23)nnc1SCc1ccc(Cl)cc1Cl	102	103	-7	2
COc1ccccc1NC(=O)c1c(C)oc2c1CCCC2	99	101	-29	0
c1ccc(Nc2nc(Nc3ccccc3)nc(N3CCc4ccccc4C3)n2)cc1	102	103	-21	3
COc1cccc(CN2C(=O)c3ccccc3C(C(=O)O)C2c2cccc(OC)c2O)c1 (configuration not stated)	104	102	-21	-18
COc1ccc(NC(=O)c2ccc(Cl)c(S(=O)(=O)N3CCc4ccccc4C3)c2)cn1	102	117	-17	9
CCOC(=O)c1ccccc1NC(=O)NCc1noc2ccc(C)cc12	102	107	-18	13
Cc1noc(N)c1C#N	101	98	24	2
NS(=O)(=O)c1ccc(CCNC(=O)CC(c2ccccc2)c2ccccc2)cc1	107	111	-2	nt
CCOc1ccc2nc(SCC(=O)c3cc(C)n(C(C)COC)c3C)sc2c1 (configuration not stated)	105	106	-26	-2
CCc1ccc(N2COc3ccc(OC)cc3C2)cc1	100	99	19	13
CC(=O)OC[C@H]1O[C@@H](NC(=S)NN)[C@H](OC(C)=O)[C@@H](OC(C)=O)[C@@H]1OC(C)=O	nt	nt	-29	-2
Cc1cc(C(F)(F)F)c(C(=O)O)cn1	100	101	-10	-47
CCOC(=O)c1ccc(NC(=O)CC2C(=O)OCC3CCCCN32)cc1 (configuration not stated)	99	89	-33	-20
COCc1[nH]c(=S)c(C#N)cc1C(=O)OC	104	106	-23	0
CC(C)C(=O)NC(C)c1nc(-c2ccccc2)no1 (configuration not stated)	101	102	6	-4
C/C(=N\NC1=NCCCCC1)c1ccccc1	98	101	-11	14
c1ccc(C2OCC3OC(c4ccccc4)OC3CO2)cc1 (configuration not stated)	101	103	2	8
Cc1ccccc1OCCn1c(=S)[nH]c2ccccc21	103	94	-63	26
C=CCn1cnc2c1c(=O)[nH]c(=O)n2C	103	101	0	0
CCOC(=O)c1ccc2c(c1)N(CC)C(=O)c1ccccc1S2	102	101	-9	-1
CCc1ccc(CNC(=O)CCC(=O)n2ncc3ccccc32)cc1	105	101	-32	0
COC(OC)c1[nH]c(=S)ncc1C(=O)O	103	102	-55	-2
Cc1cccc(N2CCN(C(=O)CCC(=O)N3CCOc4ccc(Cl)cc43)CC2C)c1 (configuration not stated)	103	105	-22	-5
CCOC(=O)c1cnn2c1nc(Oc1cc(C(F)(F)F)cc(C(F)(F)F)c1)c1ccccc12	103	108	-12	-5
CC(=O)Nc1ccc2[nH]c(C)c(C)c2c1	102	103	-13	0
O=C(Nc1ccc(F)cc1)C(NCc1ccco1)c1ccccc1 (configuration not stated)	109	124	1	12
c1csc(NC2=NCCC2)n1	101	100	12	-27
O/N=C/c1cn(CC(O)COc2cccc3cccnc23)c2ccccc12 (configuration not stated)	nt	nt	-10	-14
Nc1nc(SCC(=O)Nc2ccccc2C(=O)Nc2ccccc2)n[nH]1	102	105	-90	3
CCn1c(C)c(CCC(=O)NCc2ccccn2)c(=O)n2nc(-c3ccccc3OC)cc12	103	103	-15	88
COc1ccc(CCNC(=O)c2cc(-c3ccccc3O)no2)cc1OC	102	101	-18	-8
O=C(O)c1ccc2c3c(ncnc13)-c1ccccc1C2=O	95	115	-31	3
Cn1cnnc1SCC(=O)c1ccc(C2CCCCC2)cc1	101	98	nt	-4
S=C(Nc1ccccc1)N1N=C(c2cccs2)CC1c1cccs1 (configuration not stated)	100	102	-61	-6
O=C1/C(=C/c2c(N3CCCCC3)nc3ccccn3c2=O)SC(=S)N1Cc1ccco1	92	184	-2	6
CC(C)NC(=O)Cn1cc(C(=O)C(C)C)c2ccccc21	103	110	-63	6
Cc1ccc(S(=O)(=O)c2ccccc2)cc1S	62*	66*	-12	nt
CN(C)CCCNc1nc(-c2ccccc2)c2c(c1C#N)CC(C)(C)OC2	103	102	-3	26
CCn1c(CSc2nc3ccccc3s2)nnc1SCC(=O)OC(C)(C)C	106	105	-20	2
O=C1c2ccccc2C(=O)c2ccccc21	102	101	-2	-24
Cc1cc(C)n(-c2ccc(C(=O)OCC(=O)C(C)(C)C)cc2)n1	106	110	-26	-8
COC(=O)c1sccc1-c1ccc(-c2ccn(S(=O)(=O)c3ccc(Cl)cc3)n2)o1	98	109	5	21
CS(=O)c1nc(-c2cccs2)cc(-c2ccccc2)c1C#N (configuration not stated)	102	99	-31	89
Cc1ccc(C)c(NS(=O)(=O)c2ccc3c(c2)c(=O)n(C)c(=O)n3C)c1	101	103	2	-7
Nc1ncc(N=Nc2cc(C(=O)O)ccc2Cl)s1	94	97	-362	50
Cc1ccc(C(=O)NC(=O)CSc2nnnn2-c2ccccc2)cc1	100	103	0	-7
O=C(CCc1ccccc1)Nc1ccc(NC(=O)c2ccco2)nc1	101	102	1	i
O=c1c2ccccc2c(-c2n[nH]c(=S)o2)nn1Cc1ccccc1	97	102	-3	10
CCCCCn1c(SCC(=O)OCC)nc2cc(C(=O)N3CCC(C(N)=O)CC3)ccc2c1=O	101	103	-23	-18
Cn1c(N=Nc2c(O)[nH]c(=O)[nH]c2=O)nc2c1c(=O)n(Cc1ccc(Cl)cc1)c(=O)n2C	nt	nt	-44	15
CC(CCc1ccccc1)NCc1ccc(C(=O)O)s1 (configuration not stated)	104	98	6	8
Cc1cccc(OCOc2cccc(C)c2)c1	101	102	-14	-8
CC(C)(C)C(=O)COC(=O)c1ccc(C#N)cc1	100	104	-3	-10
N=c1c2cnn(-c3ccccc3)c2ncn1/N=C/c1ccc(Cl)cc1	107	110	6	-7
COC(=O)C1CCCN1S(=O)(=O)c1ccccc1N (configuration not stated)	102	101	16	3

Overlap with the part before: 2 compounds, then new ones.
compound	PV pol inh	PV pol inh intensity	Mtb MenB inh	Mtb MbtI inh
N=c1c2cnn(-c3ccccc3)c2ncn1/N=C/c1ccc(Cl)cc1	107	110	6	-7
COC(=O)C1CCCN1S(=O)(=O)c1ccccc1N (configuration not stated)	102	101	16	3
CCCCCCCCCCCCCCCCOC[C@H](COP(=O)([O-])OCC[N+](C)(C)C)OC(C)=O	101&100	103&102	5	-16
CC1CC(=O)N(Cc2ccc(F)cc2)c2ccccc2S1(=O)=O (configuration not stated)	105	101	-2	0
CN(C(=O)CN1C(=O)c2cc(Cl)c(Cl)cc2C1=O)C1CCS(=O)(=O)C1 (configuration not stated)	105	106	7	6
OCCN(Cc1ccccc1)CC1CC2C=CC1C2 (configuration not stated)	101	105	0	-8
COc1ccc2[nH]c(=O)c(CN(Cc3ccc4c(c3)OCO4)Cc3nnnn3CCc3ccccc3)cc2c1	105	104	3	14
N#Cc1cccc(S(=O)(=O)NC2CC2)c1	102	99	-14	8
CC(=O)Nc1ccc(NC(=O)C2CC(=O)N(Cc3ccccc3)C2)cc1 (configuration not stated)	105	92	-16	nt
COc1cccc(NC(=O)c2oc3ccccc3c2C)c1	103	101	-16	32
C=C1N(c2ccc(Cl)cc2)C(=O)OC1(C)C	103	114	0	nt
CC(=O)O[C@]1(C(C)=O)CCC2C3C[C@H](C)C4=CC(=O)CC[C@]4(C)C3CC[C@@]21C (some centres not stated)	100	101	-3	-14
Cc1ccc(-c2nn(CO)c(=S)o2)cc1	99	98	11	-181
CCCn1c(O)c(C=Nc2c(C)n(C)n(-c3ccccc3)c2=O)c(=O)[nH]c1=S	105	110	-25	9
CCSC1=N/C(=C\c2ccc(C(C)C)cc2)C(=O)S1	102	102	-33	-35
COC1OC2COC(c3ccccc3)OC2C(O)C1O (configuration not stated)	110	107	-23	nt
COc1cc(NC(=O)CCN2CCC(C)CC2)cc(OC)c1	104	114	-6	nt
C/C=C(\C)CN1CCN(Cc2ccccc2)CC1	99	102	-15	-1
O=C(Cc1nc(O)cs1)c1ccccc1	104	104	-10	11
COc1ccc(-c2onc(C)c2-c2ccc3c(c2)OCCO3)c(O)c1	103	108	-50	6
CNC(=O)CSc1nc2ccc(C)cc2[nH]1	101	104	2	-11
C=C(C)Cn1c(C2CC(=O)N(c3cccc(SC)c3)C2)nc2ccccc21 (configuration not stated)	103	104	-54	-4
O=C(CC1COc2ccccc2O1)NC1CCCCC1 (configuration not stated)	102	98	-6	-14
O=C(NCCN1CCCCCC1)c1cnc2sc(N3CCOCC3)nn2c1=O	104	97	9	113
CC(NC(=O)C1CCCN1S(=O)(=O)c1ccccc1)c1ccccc1 (configuration not stated)	99	103	-16	nt
COc1ccc(CNC(=O)c2ccc(C)c(C)c2)cc1	109	107	7	nt
COc1cccc2c(CCN)c[nH]c12	89*	94*	6	nt
CN(Cc1ccccc1)S(=O)(=O)c1ccc2c(c1)OCC(C(=O)N1CCCC1)O2 (configuration not stated)	99	99	0	17

High-throughput results (PubChem)
